Source: PubChem BioAssay
NPYLR7 ag: activates Aedes aegypti NPYLR7 receptor. HEK293T NPYLR7/Galpha15, GCaMP6s calcium fluorescence. activation, % at 10 µM. 270,000 tested, 0.15% active. AID 1259423; in the data active means activation above about 40%;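 further: 0% = vehicle and 100% = reference agonist at the receptor; some compounds past the cut are filed as inactive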
NPYLR7 ag max-min: second read-out of NPYLR7 ag, no call of its own (marks repeat the call); activation, %; measured here: Max-Min RFU normalised activation; some inactives read as strong as hits;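 span of the calcium signal over five minutes; 0% = vehicle and 100% = native peptide agonist; compound fluorescence can raise it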
* = called active by the depositor; & = joins results of further samples. Not all compounds are listed; count on the stated rates, not on these rows.

Every second line gives: NPYLR7 ag	NPYLR7 ag max-min
1) Cc1cccc(CN2CCC(Nc3ccc(S(=O)(=O)N4CCN(C)CC4)cn3)CC2)c1
  8	5
2) O=C(NCC1(c2ccccc2)CCC1)c1cnc2[nH]c(=O)[nH]c(=O)c2c1
  11	7
3) COCCCn1c(C(=O)Nc2cccc(NC(C)=O)c2)cc2c(=O)n(C)c(=O)n(C)c21
  -2	-3
4) CC(C)OCC(O)CN(C)C1CCCN(c2ccccc2)C1 (stereo unspecified)
  0	-2
5) Cc1nc2sc(C)c(C)n2c(=O)c1NC(=O)c1ccco1
  13	5
6) O=c1c2ccc(Cl)cc2[nH]c(=S)n1C1CCCCC1
  20	17
7) C=CCCC(=O)N1CCN(Cc2cc(=O)c(OCc3ccc(SC)cc3)co2)CC1
  6	8
8) COCc1nc(C)nc(N2CCN(C(=O)C3CC3)CC2)c1Cc1cccc(Cl)c1
  -4	3
9) COc1ccc(NC(C)C(=O)N(C)C2CCCCC2)cc1OC (stereo unspecified)
  1	-1
10) CC(C)C(=O)N1CCC1(C)C(=O)Nc1ccccc1OC(F)F (stereo unspecified)
  7	6
11) Cn1c(=O)n(Cc2c(F)cccc2Cl)c(=O)c2c1nc1n2CCCN1C1CCCCC1
  7	6
12) Cc1ccc(NC(=O)Nc2ccc(N(C)C)c(C(=O)NCCc3ccccc3)c2)c(C)c1
  2	-5
13) Cc1ccccc1NC(=O)CC(=O)N(C)CCN1CCCCC1=O
  -2	-3
14) COC(=O)CSc1nnc(C)c(=O)[nH]1
  6	4
15) O=C(Cn1nc(-c2ccccc2)c2sc(N3CCCCC3)nc2c1=O)N1CCCc2ccccc21
  -3	-6
16) CCCC(=O)OCC(=O)Nc1ccc2ccccc2c1
  5	1
17) Cc1cnc(-c2nc(C(C)C)nn2-c2cccc3cccnc23)cn1
  15	-1
18) CC1CCCN(C(=O)Cn2nc3c(-c4nc(-c5ccc(Cl)cc5)no4)cccn3c2=O)C1 (stereo unspecified)
  -6	-7
19) CN(CC(=O)Nc1ccc(OC(F)(F)F)cc1)c1cn[nH]c(=O)c1Cl
  13	11
20) CCN1CCC(N(C)C(=O)Nc2ccc(CC#N)cc2)C(C)C1 (stereo unspecified)
  -20	-21
21) Cc1ccc(NC(=O)CSCC(=O)NCCc2ccccc2)c(C)c1
  -2	-6
22) CC(C)NC(=O)NCCc1ccc(NC(=O)c2ccc(Br)cc2)cc1
  -4	-10
23) COc1cccc(-c2cc(CO)no2)c1
  -6	-9
24) Cc1cc(C)n(Cc2cc(C(=O)N(C)C(C)c3cccs3)n[nH]2)n1 (stereo unspecified)
  13	6
25) CN1CC[C@H](c2c(O)cc(O)c3c(=O)cc(-c4ccccc4Cl)oc23)[C@H](O)C1
  2	-6
26) COc1ncccc1C(=O)N1C[C@H](O)[C@@H](N2CCOCC2)C1
  8	7
27) COc1cccc(C(=O)NC(=NCCN2CCCCC2)OC(C)C)c1
  18	25
28) Cc1nnc(SCCCNC(=O)c2coc3c2C(=O)CCC3)s1
  4	1
29) c1ccc2c(c1)nc(N1CCN(C3CCCCC3)CC1)c1nnnn12
  22	18
30) COc1ccccc1-n1c(SC)nc2c(c1=O)SCC2
  -1	-2
31) CC1(C(=O)NS(=O)(=O)c2ccccc2OC(F)(F)F)CCN1C(=O)C1CC1 (stereo unspecified)
  -2	-3
32) COc1nc(-c2ccc(Cl)c(Cl)c2)n(-c2cccc(NC(=O)c3ccc(C(F)(F)F)cc3)c2)n1
  -2	0
33) CC(C)(C)c1nn2cnnc2n(/N=C\c2c3ccccc3cc3ccccc23)c1=O
  5	2
34) O=C(CCc1nnc(CCC2CCCCC2)o1)N1CCN(c2ncccn2)CC1
  3	0
35) CC(C)NC(=O)CN1CCN(c2cc(Oc3ccccc3F)ncn2)CC1
  -6	3
36) O=C(Cn1nc2ccccn2c1=O)Nc1cc(-c2ccc(Br)cc2)ncn1
  0	-10
37) CN(CC(=O)NCc1ccco1)C(=O)CCN1C(=O)NC(C)(C)C1=O
  8	10
38) O=C(c1cccc(N2CCNC2=O)c1)N1CCOC2(CNCCOC2)C1 (stereo unspecified)
  -3	33
39) O=C(C1CCCN(Cc2ccco2)C1)N(CC#Cc1ccccc1)C1CC1 (stereo unspecified)
  7	-10
40) Cc1ccccc1SCC(=O)N1CCNCC1C(=O)NC1CC1 (stereo unspecified)
  0	-2
41) CCn1nc(CNC(=O)c2cn[nH]n2)c2ccccc21
  0	-9
42) O=C(O)[C@H]1C[C@H](C(=O)NC2CC2)CN(Cc2ccc(-c3ccn[nH]3)s2)C1
  1	3
43) Cc1ncc(CSc2ccccc2S(C)(=O)=O)s1
  4	5
44) Cc1nc2scc(C)n2c(=O)c1NC(=O)c1ccccn1
  6	1
45) CC(C)N1CCN(Cc2ccc(C#CCCO)cc2)CC1CCO (stereo unspecified)
  3	-3
46) COc1ccc(C(=O)N2C[C@H]3CC=CC[C@H]3C2)o1
  3	1
47) Clc1ccc(Cc2nc(CSc3nc4ccccc4s3)cs2)cc1Cl
  2	-1
48) CC(=O)NCCCN(C)C(=O)c1sc(Cc2ccccc2)nc1C
  5	1
49) O=C(CCn1ccccc1=O)Nc1n[nH]c(-c2cccc(Cl)c2)n1
  6	3
50) O=C(c1cc2cc(Cl)ccc2oc1=O)N1CCN(Cc2ccccc2)CC1
  -1	-2
51) OCC1(CCCc2ccccc2)CCN(C2CCSCC2)CC1
  13	17
52) CCOc1ccc(C2c3cccn3CCCN2Cc2ccc(OC)c(OC)c2)cc1 (stereo unspecified)
  18	15
53) Cc1cccnc1NC(=O)N1CC2CC3CC(C2)CC1C3
  -14	-15
54) CCCn1nccc1C(=O)N1CCC2(CCNCC2)CC1
  8	3
55) COc1cccc(-c2cccc(NC(=O)C3CCN(C4CCSCC4)CC3)c2)c1
  21&12	10&2
56) CC(C)(C)c1ccc(S(=O)(=O)N2CCC3(CC2)SCCN3C(=O)c2ccccc2)cc1
  -5	7
57) Cc1ccc2cc(CCNC(=O)c3ccc4ccccc4c3)c(=O)[nH]c2c1
  0	22
58) Cn1cc(CC(=O)N2CCCC(O)(CO)CC2)c2ccccc21 (stereo unspecified)
  0	-2
59) COc1ccccc1OCCCn1c2ccccc2c2nc3ccccc3nc21
  5	6
60) O=C(CC(NCCC1=CCCCC1)C(=O)O)Nc1ccc(Cl)c(Cl)c1 (stereo unspecified)
  0	3

Remaining list, next part
Every second line gives: NPYLR7 ag	NPYLR7 ag max-min
61) CN(C)c1ccc(-c2n[nH]c3ccnc(-c4ccco4)c23)cc1
  -4	-1
62) C=CCN1CC(C(=O)N2CCC(Cc3ccc(OC)cc3)(C(=O)OCC)CC2)CC1=O (stereo unspecified)
  21	6
63) CC(C)(C)c1cc(C(c2cccs2)N2CCOCC2)cc(C(C)(C)C)c1O (stereo unspecified)
  -1	-2
64) CCOc1cccc2cc(C(=O)NC(C)=O)c(=Nc3ccc(F)cc3)oc12
  -6	-11
65) c1cncc(-c2nnc3sc4ccccc4n23)c1
  20	7
66) CC(C)N(Cc1csc(COc2cccc(Cl)c2)n1)C(=O)c1cccc(Br)c1
  -1	0
67) COc1ccc(CCNS(=O)(=O)c2cn(C)c(=O)n(C)c2=O)cc1
  -1	-2
68) O=C1CCN(C(=O)c2nn(CCc3ccccc3)c3c2CN(C(=O)Cc2cccs2)CC3)CCN1
  21	9
69) COc1ccccc1C1c2cccn2CCCN1Cc1ccccc1[N+](=O)[O-] (stereo unspecified)
  7	13
70) Cc1ccc(C(N)=O)c(Oc2ccccc2CN(C)C)n1
  7	5
71) CC12CCC(c3c1nc1ccccc1[n+]3[O-])C2(C)C (stereo unspecified)
  6	7
72) CCc1nccc(-c2nccn2-c2ccc(OC)nc2OC)n1
  13	-1
73) CCOc1ccc(-c2cccc(NS(=O)(=O)c3ccc(C)c(C)c3)c2)nn1
  -1	27
74) CCN1CCN(C(c2cccc(OC)c2)C2Sc3nc(-c4ccco4)nn3C2=O)CC1 (stereo unspecified)
  2	1
75) Cc1ccccc1CN1CCN(Cc2nc3scc(-c4ccccc4Cl)c3c(=O)[nH]2)CC1
  7	10
76) CO[C@H]1[C@H](NC(=O)COc2ccccc2)c2ccccc2C12CCN(C(=O)c1c(C)noc1C)CC2
  16	4
77) COCCN(Cc1ccc(OC)c(OC)c1)Cc1ccc(C(C)(C)O)o1
  -8	-5
78) CCC1CCc2c(sc3nc[nH]c(=O)c23)C1 (stereo unspecified)
  -1	-4
79) CCCC(=O)N1CCCC1(C)C(=O)NCc1c(F)ccc(C)c1F (stereo unspecified)
  -1	-4
80) C#CCOc1c(Br)cc(Br)cc1CO
  0	-7
81) CC(C)COc1nc(-c2cccc(C(F)(F)F)c2)n(-c2ccc(NC(=O)c3cccs3)cc2)n1
  26	13
82) O=C(NCC1Cc2cc(F)cc(F)c2O1)c1ccccc1Br (stereo unspecified)
  0	-5
83) COc1ccc([C@H]2[C@@H](C(=O)NCCNc3ccc([N+](=O)[O-])cn3)c3ccccc3C(=O)N2Cc2ccccc2)cc1
  -1	-8
84) CCCCCCCC1(C)NC(=O)N(CC(O)COc2cccc(C(C)=O)c2)C1=O (stereo unspecified)
  0	4
85) O=C(CC1COCCN1)NCCC(c1ccccc1)c1ccccc1 (stereo unspecified)
  -4	-4
86) O=C(CCN1CCN(S(=O)(=O)N2CCCC2)CC1)Nc1ccccc1F
  1	0
87) Cc1ccc(CN(Cc2ccco2)C(=O)Nc2ccc3c(c2)CCC3)s1
  6	4
88) CCOC(=O)C1=C(C)N=c2s/c(=C/c3ccco3)c(=O)n2C1c1ccccc1Cl (stereo unspecified)
  1	-1
89) COc1cc(Cl)cc(/C=N\Nc2nc(N3CCOCC3)nc(N3CCOCC3)n2)c1O
  3	-4
90) Cn1c(=O)oc2cc(S(=O)(=O)N3CC(c4ccccn4)C3)ccc21
  9	9
91) Cc1ccccc1CN(C)C(=O)NC(C)c1ccccn1 (stereo unspecified)
  -2	-1
92) O=C(NCCS(=O)(=O)N1CCCC1)c1cccc(-n2cccn2)c1
  9	10
93) COC(=O)COc1ccc2c(c1)C(=O)c1cc(OCC(=O)OC)ccc1-2
  -8	-7
94) CCC1CN(Cc2ccc(Cn3cccn3)cc2)CCN1C(C)C (stereo unspecified)
  -6	-15
95) CCn1ncnc1C1CC(=O)Nc2cc3c(cc21)CCc1ccccc1N3 (stereo unspecified)
  6	6
96) O=S(=O)(c1ccc(N2CCCC2c2ccc3c(c2)OCCO3)nc1)N1CCOCC1 (stereo unspecified)
  0	41
97) Cc1nc2ncccn2c1C(=O)N(CC1COc2ccccc2O1)C(C)C (stereo unspecified)
  -1	-1
98) Cc1cccc(C(=O)N2CCSCC2)c1NC(=O)c1cccnc1
  9&-3	0&-4
99) CCC(=O)N1C2C=CC(C2)C1(C(F)(F)F)C(F)(F)F (stereo unspecified)
  3	0
100) CSc1ncccc1C(=O)N1CCN(c2nccc(-c3ccc(N4CCOCC4)cc3)n2)CC1
  16	17
101) COc1cccc(F)c1C(=O)N1CCC(Cc2cccc(C(=O)O)c2)CC1
  4	3
102) C=CCNc1ccccc1C(=O)N1[C@@H]2CC[C@H]1CC(O)C2 (stereo partly specified)
  1	4
103) CCOc1cccc(CN(C(=O)C2(C)CC2)C2CC2)c1
  -2	-8
104) CC[C@H]1CN(c2cc(C)nc3ccccc23)CC[C@@]1(C)O
  -7	-9
105) CN(Cc1ccc(C#N)cc1)c1nccn2cnnc12
  9	6
106) COc1ccc(C(C)=O)cc1Cn1c(C)c(C(=O)NCc2ccc(C(C)C)cc2)sc1=O
  2	-2
107) Cc1cc(C(=O)N2CCN(C)C(=O)C2C)c2cnn(C(C)C)c2n1 (stereo unspecified)
  4	4
108) CCCCN(Cc1cccn1Cc1cccc(C)c1)C(=O)CN(CCOC)C(=O)C(CC)c1ccccc1 (stereo unspecified)
  -3	7
109) Cn1cnnc1SCC(=O)N1CCCCCC1
  -7	-7
110) C/C=C(/C(=C/C)c1ccc(O)cc1)c1ccc(O)cc1
  -7&-2	-10&-5
111) COc1ccccc1/C=C/C1Nc2ccccc2C(=O)N1C1CC1 (stereo unspecified)
  -32&-1	-31&-1
112) CCSc1nnc(NC(=O)Cc2ccccc2Cl)s1
  7	11
113) CSc1nc2c(c(=O)n(C)c(=O)n2C)n1Cc1ccccc1Cl
  1	1
114) Cc1ccc(C)c(NC(=O)CC(=O)N(C)C(C)c2ccncn2)c1 (stereo unspecified)
  26	29
115) Nc1nc(NCCO)cc(-c2cc3ccccc3o2)n1
  -8	-8
116) Cc1ccc(C(=O)CCC(=O)n2nc(N)c3ccccc32)cc1
  3	1
117) COc1ccc(CCN(C)c2cc(Cl)nc(SCC(=O)NCCCN3CCOCC3)n2)cc1OC
  37	34
118) O=C(Cc1ccc(F)cc1)NCc1cc(-c2cc3ccccc3o2)on1
  4	2
119) Cn1cc(C(=O)NCc2csc(N3CCCC3)n2)ccc1=O
  -3	-4
120) CCCCN(CC(=O)N1c2ccccc2-n2cccc2C1c1ccc(OC)cc1)C(=O)Nc1cc(OC)cc(OC)c1 (stereo unspecified)
  -6	1
121) CN(C)CC(O)COc1ccc(CN2CCN(c3cccc(Cl)c3)CC2)cc1 (stereo unspecified)
  -3	-6
